# Source: PubChem BioAssay (Broad Institute)
# Vaccinia stage – Vaccinia orthopox stage-specific inhibition; Vaccinia-infected cells, mCherry/Venus stage reporter fluorescence; hits give low values; some inactives read as strong as hits; activity change (mCherry), % (test concentration not listed); actives 0.01% (n = 89,000); AID 1053133;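 active means mCherry past -33% and 40 or more points under the early reporter, replicates agreeing; inconclusive means past -33% without that gap or agreement; tested in A549 cells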;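 further: scaled between vehicle wells and reference inhibitor wells; 23 nL library stock went into each well; one replicate is shown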
# Vaccinia stage Venus – also measured in Vaccinia stage; calls as there; activity change (Venus), %; measured here: Venus reporter, other viral stage;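 negative = less Venus signal; first of two replicates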
# * hit, by the source's call; ? = inconclusive; . = not tested or not shown; & = joins results of further samples. Some of the compounds tested; count on the stated rates, not on these rows.
SMILES,Vaccinia stage,Vaccinia stage Venus
O=C(C[C@@H]1CC[C@H]2[C@@H](COC[C@H](O)CN2CC2CC2)O1)NCc1ccc(Cl)cc1,4,14
CCCN1[C@@H]2c3ccc(-c4ccc(F)cc4)c(=O)n3C[C@H]1[C@H](CO)[C@H]2C(=O)NCC1CC1,-2,-9
CCCNC(=O)C[C@@H]1C[C@H]2c3cc(NS(=O)(=O)c4cccc(OC)c4)ccc3O[C@H]2[C@@H](CO)O1,4,2
COc1ccccc1-c1ccc2n(c1=O)C[C@@H]1[C@@H](CO)[C@H](C(=O)Nc3nccs3)N(C)[C@H]21,10,6
Cc1noc(C)c1S(=O)(=O)N(C)C[C@@H]1OCCCC[C@@H](C)Oc2ccc(NC(=O)c3ccccc3)cc2C(=O)N([C@H](C)CO)C[C@@H]1C,-2,6
Cc1ccc(S(=O)(=O)Nc2ccc3c(c2)C(=O)N([C@@H](C)CO)C[C@@H](C)[C@H](CN(C)C(=O)Nc2c(C)noc2C)OCCCC[C@H](C)O3)cc1,16,10
C[C@@H]1CN([C@H](C)CO)C(=O)c2cccc(NC(=O)c3cnccn3)c2O[C@H]1CN(C)CC1CCCCC1,-11,-7
C/C=C/c1ccc([C@@H]2[C@H](CO)N(Cc3cncnc3)C23CN(C(=O)COC)C3)cc1,0,-2
C[C@@H]1CN([C@H](C)CO)C(=O)c2cc(NC(=O)C3CCCCC3)ccc2O[C@@H](C)CCCCO[C@H]1CN(C)C(=O)Nc1ccc2c(c1)OCO2,-12,-13
C[C@@H]1CN([C@H](C)CO)C(=O)c2cc(NC(=O)Nc3ccc(C(F)(F)F)cc3)ccc2O[C@@H]1CN(C)C,-18,-17
Cc1noc(C)c1NC(=O)Nc1ccc2c(c1)CC(=O)N([C@H](C)CO)C[C@H](C)[C@H](CN(C)CC1CCCCC1)O2,-1,3
CCCNC(=O)[C@H]1[C@H](CO)[C@H]2Cn3c(ccc(-c4cncnc4)c3=O)[C@@H]1N2C(=O)Nc1ccccc1,-3,7
CC(C)NC(=O)N[C@H]1CC[C@@H](CCNS(=O)(=O)c2ccc(F)cc2)O[C@@H]1CO,6,5
C/C=C/c1ccc([C@H]2[C@@H](CO)N(S(C)(=O)=O)[C@@H]2CN(CCC)C(C)=O)cc1,-2,-4
C[C@@H]1CN([C@H](C)CO)C(=O)CCCn2nncc2CO[C@@H]1CN(C)Cc1cccc2c1OCCCO2,2,4

# Part of the list above in order of number of heavy atoms, rising.
SMILES,Vaccinia stage,Vaccinia stage Venus
C/C=C/c1ccc([C@@H]2[C@H](CO)N(Cc3cncnc3)C23CN(C(=O)COC)C3)cc1,0,-2
COc1ccccc1-c1ccc2n(c1=O)C[C@@H]1[C@@H](CO)[C@H](C(=O)Nc3nccs3)N(C)[C@H]21,10,6
Cc1noc(C)c1S(=O)(=O)N(C)C[C@@H]1OCCCC[C@@H](C)Oc2ccc(NC(=O)c3ccccc3)cc2C(=O)N([C@H](C)CO)C[C@@H]1C,-2,6
Cc1ccc(S(=O)(=O)Nc2ccc3c(c2)C(=O)N([C@@H](C)CO)C[C@@H](C)[C@H](CN(C)C(=O)Nc2c(C)noc2C)OCCCC[C@H](C)O3)cc1,16,10

# (listing goes on)
SMILES,Vaccinia stage,Vaccinia stage Venus
CN(C)C(=O)c1cccc(-c2ccc3c(c2)[C@@H]2[C@@H](CCN2S(=O)(=O)c2cn(C)cn2)[C@H](CO)N3)c1,9,4
C[C@@H]1CN([C@@H](C)CO)C(=O)c2cc(NC(=O)CCN3CCOCC3)ccc2O[C@H]1CN(C)Cc1ccc(Oc2ccccc2)cc1,-10,-6
CO[C@@H]1CN(C)C(=O)c2ccc(NC(=O)CC(F)(F)F)cc2OC[C@@H](C)N(C(C)=O)C[C@@H]1C,9,7
C[C@@H]1CN([C@@H](C)CO)C(=O)c2cc(C#C[C@@H](C)O)cnc2O[C@@H]1CN(C)Cc1cccc(F)c1,5,3
Cc1noc(C)c1S(=O)(=O)Nc1ccc2c(c1)C(=O)N([C@H](C)CO)C[C@H](C)[C@H](CN(C)S(=O)(=O)c1ccccc1)OCCCC[C@@H](C)O2,4,0
O=C(C1=C[C@@H](c2coc3ccccc3c2=O)C[C@@H](OCCCCO)O1)N1CCOCC1,16,4
CCC(=O)N1C[C@@H](C)[C@H](OC)CN(C)C(=O)c2ccc(NC(=O)NC(C)C)cc2OC[C@H]1C,14,5
C[C@H](CO)N1C[C@H](C)[C@H](CN(C)C(=O)C2CCCCC2)Oc2ncc(-c3cccc(C#N)c3)cc2C1=O,-13,-12
Cc1noc(C)c1NC(=O)Nc1ccc2c(c1)C(=O)N([C@H](C)CO)C[C@@H](C)[C@H](CN(C)C)OCCCC[C@H](C)O2,5,8
COc1cccc(C(=O)Nc2ccc3c(c2)OC[C@H](C)N(C(=O)C2CCCC2)C[C@H](C)[C@@H](OC)CN(C)C3=O)c1,-10,-9
CCCC#Cc1cnc2c(c1)C(=O)N([C@@H](C)CO)C[C@@H](C)[C@@H](CN(C)S(C)(=O)=O)O2,8,5
Cc1noc(C)c1S(=O)(=O)N(C)C[C@@H]1Oc2ccc(NS(=O)(=O)c3ccc(Cl)cc3)cc2CC(=O)N([C@@H](C)CO)C[C@@H]1C,8,-1
O=C(C[C@@H]1CC[C@@H]2[C@H](COC[C@H](O)CN2CCc2ccccc2)O1)NCc1ccc(Oc2ccccc2)cc1,?,.
CCC(=O)N(C)C[C@@H]1Oc2cc(-c3cccc(F)c3)ccc2S(=O)(=O)N([C@@H](C)CO)C[C@H]1C,24,11
COCC(=O)Nc1ccc2c(c1)C(=O)N(C)[C@H]1CC[C@H](CC(=O)Nc3ccccc3F)O[C@@H]1CO2,7,4

# Rewritten with bars between the fields: part of the list above
Compound | Vaccinia stage | Vaccinia stage Venus
COc1cccc(C(=O)Nc2ccc3c(c2)OC[C@H](C)N(C(=O)C2CCCC2)C[C@H](C)[C@@H](OC)CN(C)C3=O)c1 | -10 | -9
CO[C@@H]1CN(C)C(=O)c2ccc(NC(=O)CC(F)(F)F)cc2OC[C@@H](C)N(C(C)=O)C[C@@H]1C | 9 | 7
CCCC#Cc1cnc2c(c1)C(=O)N([C@@H](C)CO)C[C@@H](C)[C@@H](CN(C)S(C)(=O)=O)O2 | 8 | 5
CCC(=O)N(C)C[C@@H]1Oc2cc(-c3cccc(F)c3)ccc2S(=O)(=O)N([C@@H](C)CO)C[C@H]1C | 24 | 11
C[C@H](CO)N1C[C@H](C)[C@H](CN(C)C(=O)C2CCCCC2)Oc2ncc(-c3cccc(C#N)c3)cc2C1=O | -13 | -12
C[C@@H]1CN([C@@H](C)CO)C(=O)c2cc(C#C[C@@H](C)O)cnc2O[C@@H]1CN(C)Cc1cccc(F)c1 | 5 | 3

# (more compounds)
SMILES,Vaccinia stage,Vaccinia stage Venus
Cn1cnc(S(=O)(=O)N[C@@H]2C=C[C@@H](CC(=O)NCC3CC3)O[C@H]2CO)c1,3,-2
C[C@@H]1CN([C@H](C)CO)C(=O)c2cc(C3=CCCCC3)cnc2O[C@@H]1CN(C)C(=O)CN1CCOCC1,10,-4
C/C=C/c1ccc2c(c1)O[C@H](CN(C)C)[C@H](C)CN([C@@H](C)CO)S2(=O)=O,2,-5
O=C(NCC(F)(F)F)[C@@H]1[C@@H](CO)[C@@H]2Cn3c(ccc(-c4cccnc4)c3=O)[C@@H]2N1Cc1ccncc1,8,10
CCCC(=O)N1CCC2(CC1)CN(Cc1ccc(Cl)cc1)[C@H](CO)c1[nH]c3cc(OC)ccc3c12,-20,-2
CCC(=O)N1CC[C@@H]2[C@H]1c1cc(-c3ccccc3F)ccc1N(C)[C@@H]2CO,2,0
COc1ccccc1C#Cc1ccc([C@H]2[C@@H](CO)N3CCCCN(S(C)(=O)=O)C[C@@H]23)cc1,-7,-18
COC(=O)C(CC#Cc1ccc2c(c1)[C@]1(C(=O)N2)[C@H](c2ccc(OCCO)cc2)N2[C@H](c3ccccc3)[C@H](c3ccccc3)OC(=O)[C@H]2[C@@H]1C(=O)N1CCCCCCC1)C(=O)OC,1,0
CO[C@H]1CN(C)C(=O)c2cc(NC(=O)NC3CCCC3)ccc2OC[C@H](C)N(CC2CC2)C[C@@H]1C,5,0
CCCNC(=O)N1CC[C@@H]2[C@H]1c1cc(-c3ccccc3)ccc1N(C)[C@H]2CO,-18,-15
COc1ccccc1S(=O)(=O)N(C)C[C@@H]1Oc2ncc(-c3ccc(C)cc3)cc2C(=O)N([C@@H](C)CO)C[C@@H]1C,-17,-13
CCNC(=O)C[C@@H]1CC[C@@H]2[C@H](COc3ccc(NC(=O)NC(C)C)cc3C(=O)N2C)O1,8,9
C[C@H](CO)N1C[C@H](C)[C@H](CN(C)S(=O)(=O)c2ccccc2)Oc2ncc(C#Cc3cccc(F)c3)cc2C1=O,-34,-24
C[C@@H]1CN([C@H](C)CO)C(=O)Cc2cc(NC(=O)Nc3ccc(C(F)(F)F)cc3)ccc2O[C@H]1CN(C)S(C)(=O)=O,7,1
COc1ccc([Si](C)(C)[C@@H]2[C@@H](CCn3cc(CCO)nn3)O[C@]3(C(=O)N(Cc4ccc(N5CCC5=O)cc4)c4ccccc43)[C@H]2C)cc1,?,.
C[C@@H]1CN([C@H](C)CO)C(=O)c2cc(NC(=O)C3CC3)ccc2O[C@@H]1CN(C)C(=O)Nc1ccccc1,12,12
O=C(NCC1CC1)[C@H]1[C@H](CO)[C@H]2Cn3c(ccc(-c4ccncc4)c3=O)[C@H]2N1Cc1cocn1,0,2
O=C(C[C@H]1C=C[C@H](NC(=O)C2CCC2)[C@H](CO)O1)NCC1CC1,7,7
CC(C)C#Cc1ccc2c(c1)O[C@@H](CN(C)CC1CCCC1)[C@H](C)CN([C@@H](C)CO)S2(=O)=O,-23,-32
COc1ccc(S(=O)(=O)N2CCC3(CC2)CN(C(=O)c2cccnc2)[C@H](CO)c2c3c3ccc(OC)cc3n2C)cc1,?,.
O=C(C1=C[C@@H](c2coc3ccccc3c2=O)C[C@@H](OCCCCO)O1)N1CCN(Cc2ccccc2)CC1,14,1
Cn1cnc(S(=O)(=O)N2[C@@H]3CNC[C@H]2C3c2ccc(-c3cccnc3)cc2)c1 (stereo partly drawn),3&-4,13&-7
CCCC#Cc1ccc([C@H]2[C@@H](CO)N(C(=O)C3CCC3)[C@H]2C#N)cc1,22,-4
COc1ccc(CNC(=O)C[C@H]2CC[C@@H](NC(=O)CN(C)C)[C@@H](CO)O2)cc1,-4,6
CC(C)NC(=O)NCC[C@H]1CC[C@@H](NS(=O)(=O)c2ccccc2)[C@H](CO)O1,11,3
COc1ccc(NC(=O)N(C)C[C@H]2OCCCC[C@H](C)Oc3ccc(NS(=O)(=O)c4cn(C)cn4)cc3C(=O)N([C@@H](C)CO)C[C@@H]2C)cc1,12,0
C[C@H](CO)N1C[C@H](C)[C@H](CN(C)C)Oc2cc(Br)ccc2S1(=O)=O,49,17
CC(C)NC(=O)N(C)C[C@H]1OCCCC[C@H](C)Oc2ccc(NC(=O)Nc3ccc4c(c3)OCO4)cc2C(=O)N([C@@H](C)CO)C[C@H]1C,40,24
CCCC#Cc1cnc2c(c1)C(=O)N([C@H](C)CO)C[C@@H](C)[C@H](CN(C)C(=O)Nc1ccc(OC)cc1)O2,10,0
CO[C@@H](CN(C)C(=O)c1ccc2c(c1)OCO2)[C@H](C)CN([C@@H](C)CO)S(=O)(=O)c1ccc(F)cc1,12,14
O=C(C[C@@H]1C[C@@H]2c3cc(NC(=O)NC4CCCC4)ccc3O[C@@H]2[C@H](CO)O1)NCc1cccnc1,16,6
CC(C)CC#Cc1ccc2c(c1)O[C@@H](CN(C)C)[C@@H](C)CN([C@@H](C)CO)S2(=O)=O,-32,-21
O=C(C[C@H]1CC[C@H](NC(=O)C2CCC2)[C@@H](CO)O1)NCc1ccccc1Cl,4,-1
CCCNC(=O)Nc1ccc2c(c1)C(=O)N(C)C[C@@H](OC)[C@@H](C)CN(CCC)[C@@H](C)CO2,12,6
COC(=O)[C@H]1[C@H](CO)[C@H]2Cn3c(ccc(-c4cccc(F)c4)c3=O)[C@H]2N1Cc1ccccn1,0,8
O=C(C[C@@H]1C[C@H]2c3cc(NC(=O)CC4CC4)ccc3O[C@H]2[C@H](CO)O1)NCCc1ccccc1,8,7
CO[C@@H]1CN(C)C(=O)c2cc(NC(=O)C3CCCC3)ccc2OC[C@@H](C)NC[C@@H]1C,3,5
CCCNC(=O)N(C)C[C@H]1Oc2ncc(-c3ccc(OC)cc3)cc2C(=O)N([C@H](C)CO)C[C@H]1C,11,0
C[C@H](CO)N1C[C@H](C)[C@@H](CN(C)S(=O)(=O)c2ccc(F)cc2)Oc2ccc(NC(=O)Nc3cccc4ccccc34)cc2C1=O,15,-3
O=C(NC[C@@H]1CC[C@H]2[C@H](CN2Cc2ccccc2F)O1)C1CC1,15,14
O=C(C[C@H]1C=C[C@@H](NC(=O)c2ccc(F)cc2)[C@@H](CO)O1)NCc1ccncn1,-1,9
O=C(C1CCC1)N1CC(=O)N2[C@H](CO)[C@H](c3ccc(Br)cc3)[C@H]2C1,-8,4
C[C@H]1CCCCO[C@H](CN(C)C(=O)C2CCCCC2)[C@@H](C)CN([C@@H](C)CO)C(=O)c2cc(NC(=O)Nc3cccc4ccccc34)ccc2O1,3,4
C[C@@H]1CCCCO[C@H](CN(C)C(=O)Nc2ccccc2)[C@H](C)CN([C@@H](C)CO)C(=O)c2cc(NC(=O)CCCN(C)C)ccc2O1,16,16
CCCNC(=O)N1[C@H](CO)[C@H](c2ccc(C3=CCCCC3)cc2)[C@@H]1CNC(C)C,?,.
CNC[C@H]1Oc2ncc(-c3cncnc3)cc2C(=O)N([C@H](C)CO)C[C@@H]1C,-3,-5
C[C@@H]1CN([C@@H](C)CO)S(=O)(=O)c2ccc(Br)cc2O[C@H]1CN(C)C(=O)C1CCCCC1,5,4
C[C@@H]1CN([C@H](C)CO)C(=O)Cc2cc(NC(=O)Nc3ccc(C(F)(F)F)cc3)ccc2O[C@H]1CN(C)S(=O)(=O)c1ccc(Cl)cc1,-24,-12
CC(C)NC(=O)Nc1ccc2c(c1)C(=O)N([C@H](C)CO)C[C@H](C)[C@H](CN(C)C(=O)NC(C)C)OCCCC[C@@H](C)O2,30,6
COc1ccccc1NC(=O)N(C)C[C@@H]1Oc2ncc(C#CCC(C)C)cc2C(=O)N([C@@H](C)CO)C[C@@H]1C,-18,-24
